# Compound activity: PubChem, National Center for Advancing Translational Sciences (NCATS)
# TRPML1 inh: human mucolipin-1 channel inhibition | AID 624415 | activity change, negative = inhibition, % (no concentration beside the values) | TRPML1-inducible cells, Ca2+ dye fluorescence, FDSS; hits give low values; inhibition of EC80 agonist-evoked calcium signal | Q9GZU1 | 390,000 compounds, 0.02% hits; in the data active means activity change below about -50%; inconclusive means about -30% to -50%; inactive means above about -30%;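 also: stimulus is agonist 54-4 at its EC80 concentration; % is scaled to controls: 0 for no effect and ±100 for the full control effect; compound concentration not given in the record; the text of the record puts the active cut at -80%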
# Target sequence (Q9GZU1 whole entry, looked up): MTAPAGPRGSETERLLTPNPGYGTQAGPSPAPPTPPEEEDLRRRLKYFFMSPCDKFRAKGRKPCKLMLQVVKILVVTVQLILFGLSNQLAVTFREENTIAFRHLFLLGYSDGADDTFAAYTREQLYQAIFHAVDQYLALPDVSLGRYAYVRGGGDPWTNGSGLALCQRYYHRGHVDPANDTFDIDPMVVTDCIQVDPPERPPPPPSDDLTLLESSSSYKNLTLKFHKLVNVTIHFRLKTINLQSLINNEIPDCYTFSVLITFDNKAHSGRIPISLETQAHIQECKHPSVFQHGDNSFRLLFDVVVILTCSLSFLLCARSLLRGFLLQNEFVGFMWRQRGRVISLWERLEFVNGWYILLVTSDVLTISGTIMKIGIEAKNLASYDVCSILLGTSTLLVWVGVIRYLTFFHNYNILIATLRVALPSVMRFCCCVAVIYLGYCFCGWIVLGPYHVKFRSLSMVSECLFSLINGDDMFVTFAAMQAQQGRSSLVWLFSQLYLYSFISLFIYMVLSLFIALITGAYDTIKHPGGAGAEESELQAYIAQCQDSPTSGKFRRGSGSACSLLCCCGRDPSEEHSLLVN
#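 TRPML1-DL cells, Tet-induced overnight (~16 h, 37 °C) at 1,500 cells/well, were loaded with Ca8 no-wash dye plus quencher for 45-90 min at room temperature. Compounds were pinned during FDSS kinetic reading; agonist 54-4 at EC80 (4 uM final) then added.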
# Menin-MLL FL inh: displaces fluorescein MLL peptide from human menin; 290,000 tested, under 10 active; FP activity change, % at 61.4 µM; Fluorescence polarization, fluorescein-MLL peptide displacement from menin; inconclusive = falling polarisation curve, or a change in total fluorescence; inactive = total fluorescence flat and polarisation flat or rising; no compound was filed as active; the % refers to the polarisation; negative = inhibition;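 also: % of control where 0% means no effect; inhibitors lower the polarisation; unlabelled MLL peptide was the positive control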
# TRPV1 PAM: enhances activation of the human vanilloid receptor TRPV1. TRPV1-expressing cells, Fluo-8 calcium influx, capsaicin EC20 potentiation; host cell line not named in the record; control for the full effect not named in the record. Q8NER1. potentiation, % at 8.33 µM. 320,000 compounds, 0.02% hits; active means potentiation above 80%; inconclusive means 30% to 80%; inactive means below 30%; also: 0% is about no effect
#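 TRPV1-expressing cells were cultured overnight at 35.5C and loaded with Fluo-8 calcium dye for 40 to 90 min at room temperature. After a 10 s baseline, compound was added and calcium influx was read kinetically for 3 min (ex 480/em 520 nm).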
# ClpP mod: qHTS Assay for Activators of ClpP. 340,000 compounds, 1.9% hits. Potency, µM (titrated, usually from 57.5 µM), for the others: at the highest dose activity change, negative = active. purified B. subtilis ClpP, FRET peptide cleavage, 20 min; active = well fitted falling curve with a large enough effect; inconclusive = small, poorly fitted or top-dose-only effect; inactive = no such curve, though single readings can be large or run the other way; also: potency is read from the fitted curve at half-maximal effect; the source files actives as falling curves though it sought activators and does not explain the sign; nearly all actives have a fitted effect of over 65% in size; many hits overshoot -100%
# Target sequence (P80244 whole entry, looked up): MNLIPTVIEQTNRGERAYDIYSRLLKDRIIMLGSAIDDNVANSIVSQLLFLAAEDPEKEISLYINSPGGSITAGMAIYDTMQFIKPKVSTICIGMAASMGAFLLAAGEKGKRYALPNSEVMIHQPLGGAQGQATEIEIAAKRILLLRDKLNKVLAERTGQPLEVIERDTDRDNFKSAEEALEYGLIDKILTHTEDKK
#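 FRET quenching reversal measured ClpP activation: 10 microg/mL B. subtilis ClpP at pH 8 with the FRET-FV decapeptide, read at 430 nm after 320 nm excitation. The 20-min minus 0-min signal was scaled between DMSO/no-enzyme wells and ADEP (5.8 microM final).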
# TRPML1 agonist: human mucolipin-1 channel agonism; TRPML1-expressing cells, Ca2+ dye fluorescence, FDSS; host cell line not named in the record; reference of the full effect not given here; AID 624414; activation, % (no concentration beside the values); 410,000 compounds, 0.12% hits; Q9GZU1; in the data active = activation above about 50%; inconclusive = about 30% to 50%; inactive = below about 30%; also: 0% is about no effect; the text of the record puts the active cut at 80%
#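 Tet-induced TRPML1-DL cells, 1,500 per well, cultured overnight, were loaded with a no-wash Ca2+ dye for 45–90 min. Calcium fluorescence was recorded on the FDSS for 110 s after compound addition, before the EC80 agonist (4 uM 54-4) was added.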
# PINK1 modulator: changes PINK1 expression; PINK1 immunofluorescence, high-content cytometry, 24 h; Potency, µM (highest dose often 76.6 µM), inactives show at the top dose activation (PINK1 increase), usual class: activators; 410,000 compounds, 0.2% hits; active = well fitted activation curve with a large enough effect; inconclusive = small, poorly fitted or top-dose-only effect; inactive = flat fitted curve, though single readings scatter; cell line not stated here;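 also: potency is read from the fitted curve at half-maximal effect; % of control where 0% means no effect; nearly all actives have a fitted effect of over 65% in size; a mitochondrial uncoupler was the plate control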
#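 PINK1 protein, normally rapidly degraded, was detected by immunofluorescence after 24 hour compound treatment of a stable cell line. Titration data (5 concentrations) came from laser-scanning cytometry, with CCCP-treated wells as controls.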
# Sfp inh: Sfp phosphopantetheinyl transferase inhibition | Biochemical Sfp PPTase activity, qHTS | Potency, µM, for inactives: max response, negative = inhibition, most hits filed as inhibitors | Q9F4F7 | 310,000 compounds, 3.5% hits; active = well fitted inhibition curve with a large enough effect; inconclusive = small, poorly fitted or top-dose-only effect, or another doubt; inactive = no such curve, though single readings can be large or run the other way;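 also: the enzyme is Sfp with the accession as filed and its product quenches rhodamine fluorescence; potency is read from the fitted curve at half-maximal effect; 0% = enzyme reaction without inhibitor and -100% = no enzyme wells; top concentration of the series not given in the record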
#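 Compounds were incubated with enzyme (final 15 nM) for 15 min at room temperature before substrate addition started the reaction. Fluorescence at 525 nm excitation, 598 nm emission was recorded immediately and after 30 minutes.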
# Numbers without * were called inactive; ? = inconclusive; nt = no result given; [ ] = dose if it differs, or a comment.
SMILES,TRPML1 inh,Menin-MLL FL inh,TRPV1 PAM,ClpP mod,TRPML1 agonist,PINK1 modulator,Sfp inh
CC(C)Cn1c(C(C)C)nc([N+](=O)[O-])c1Sc1ccc(Cl)cn1,50,-1.6,22,1.3%,4.2,1.5%,-3%
Cc1cccc(C(C)C)c1NC(=O)c1ccc2c(c1)CCN2S(C)(=O)=O,-2,nt,nt,0.1%,-0.8,1.6%,nt
COc1ccc(Cl)cc1NC(=O)CSc1cn(CC(=O)N2CCCCC2)c2ccccc12,21,nt,nt,-2.6%,1.0,1.7%,nt
COC(=O)c1ccc(O)c(Sc2cc(C(=O)OC)ccc2O)c1,26,-0.1,0,0.4%,-0.5,-3.3%,?
Cn1cc(S(=O)(=O)CC(=O)Nc2ccc3c(c2)OCCO3)c2ccccc21,27,2.0,29,0.7%,0.1,0.2%[38.3 µM],17%
COC(=O)C1(C)NC(c2ccc(O)cc2)C2C(=O)N(c3ccc(C)cc3)C(=O)C21 (configuration not stated),-4,-2.3,1,nt,-0.2,-0.5%,12%
CCOC(=O)[C@H]1[C@H]2COc3ccc(Cl)cc3[C@@H]2N2C(=O)c3cc(C)ccc3NC(=O)[C@@]12C,8,nt,-2,-1.1%,0.4,1.1%,nt
CS(=O)(=O)Nc1ccc2c(c1)[C@H]1C[C@H](CC(=O)NCc3cccc(F)c3)O[C@@H](CO)[C@H]1O2,-3,nt,nt,-4.1%,0.4,3.3%,nt
Cc1ccc(N2C(=O)C3NN=C(C(=O)OCc4ccccc4)C3C2=O)c(C)c1 (configuration not stated),7,5.1,1,-2.1%,-0.4,3.4%,0%
O=C(O)c1ccc(CN2C(=O)CSC2=S)cc1,5,?,1,0.8%,2.2,0.2%,-28%
CCC(C)Nc1nc(SC(C(C)=O)C(C)=O)nc(N(C)C)n1 (configuration not stated),6,2.0,0,-0.9%,-0.5,2.9%,-3%
Cc1ccc(CCNC(=O)c2cc(-c3ccccc3)n[nH]2)cc1,2,nt,nt,-1.8%,2.0,-0.5%,nt
COc1cc(C#Cc2ccc3cc(CCCO)oc(=O)c3c2)cc(OC)c1,32,nt,3,4.1%,1.5,2.4%,nt
CCOC(=O)C1=C(C)NC(=O)NC1c1ccc2c(c1)OCCO2 (configuration not stated),-2,-12,7,1.1%,-0.8,-0.2%,12%
CCOC(=O)c1cc(-c2ccc(F)cc2)n(CCC(=O)Nc2nc3cc(C)c(C)cc3s2)c1C,2,nt,nt,0.1%,0.0,-0.4%,nt
Cc1cc(/C=C2/NC(=O)N(c3ccccc3)C2=O)c(C)n1-c1cccnc1,5,6.8,-4,nt,-0.7,-0.8%,4%
FC(F)(F)c1ccc(-c2cccc3c2C2CC3CCN2)cc1 (configuration not stated),12,nt,nt,-0.6%,0.6,-1.6%,nt
CC(C)(C)SCCNC(=O)CN(c1ccccc1)S(=O)(=O)c1ccccc1,3,-6.2,-24,nt,1.5,4.7%,22%
Cc1ccc(S(=O)(=O)N(C)C)cc1NC(=O)COC(=O)C1(c2ccccc2)CC1,17,nt,6,-2.9%,0.3,0.7%,nt
O=C(O)Cc1csc2ccccc12,-4,1.2,18,0.8%,-1.0,0.7%,12%

# Ordered by the number under Sfp inh (rising): 3 of the compounds above.
structure | TRPML1 inh | Menin-MLL FL inh | Sfp inh
CCC(C)Nc1nc(SC(C(C)=O)C(C)=O)nc(N(C)C)n1 (configuration not stated) | 6 | 2.0 | -3%
O=C(O)Cc1csc2ccccc12 | -4 | 1.2 | 12%
CC(C)(C)SCCNC(=O)CN(c1ccccc1)S(=O)(=O)c1ccccc1 | 3 | -6.2 | 22%

# Next part:
SMILES,TRPML1 inh,Menin-MLL FL inh,TRPV1 PAM,ClpP mod,TRPML1 agonist,PINK1 modulator,Sfp inh
COc1cc(C(=O)NCC(=O)N/N=C/c2ccccn2)cc(OC)c1OC,6,-0.3,-1,nt,2.5,-0.3%,45µM*
Cc1ccc(-c2noc(COc3ccccc3C)n2)cc1,-1,1.7,23,-1.4%,0.1,-0.1%,2%
Cc1ccc(/C=N/NC(=O)c2n[nH]c3c2CCCC3)cc1,25,0.7,-25,nt,2.1,3.4%,8%
CCOc1ccccc1NS(=O)(=O)c1cccs1,26,3.2,3,0.3%,-0.4,0.0%,15%
COc1ccc(C(=O)NC(=S)NNC(=O)c2cnccn2)cc1OC,35,3.6,-6,-1.9%,-0.5,-1.4%,6%
COc1ccc(-c2ccc(=O)n(Cc3cc(=O)n4ccccc4n3)n2)cc1,5,2.4,1,-12%,-0.2,2.3%,15%
Cc1c(/C=N/n2cnnc2)c2ccccc2n1CCOc1ccccc1,2,-0.1,?,-0.3%,-0.6,2.5%,-18%
Cc1cccc(-n2c(C)nc3cc(C(=O)NCC4CCCO4)ccc32)c1 (configuration not stated),14,-0.2,-25,-0.2%,0.4,-0.6%,9%
CCc1c(C)nc2ncnn2c1Nc1ccccc1C,-1,-5.0,6,0.3%,0.3,-0.6%,-2%
Cc1ccc(NC(=O)C2CC(=O)n3c(nc4ccccc43)N2)cc1 (configuration not stated),8,3.7,4,-0.4%,0.2,-1.4%[38.3 µM],-7%
CC(C)NC(=S)Nc1ccc2nc3n(c(=O)c2c1)CCCCC3,-7,-1.0,?,-0.7%,-0.5,-0.7%,0%
CC(C)CCNC(=O)CSc1nc2ccccc2s1,-7,6.3,-32,0.0%,0.0,0.6%,-13%
COc1ccc(CCn2c(C(C)C)nc3oc4ccccc4c(=O)c3c2=O)cc1,23,1.5,0,2.7%,2.9,0.3%,3%
CC1(C)CCC/C(=C\c2ccccc2)C1=O,20,nt,-23,0.3%,1.7,9.2%,nt
CCCCN(Cc1cccs1)S(=O)(=O)c1ccc(-c2ccc(=O)[nH]n2)s1,23,-0.6,-7,-5.3%,0.5,5.0%,5%
Cc1nn(CC(=O)Nc2ccc3nc4n(c(=O)c3c2)CCCC4)c(C)c1[N+](=O)[O-],18,nt,21,-0.1%,0.6,0.0%,6%
Cc1ccc2ncc(C(=O)c3ccc(C)c(C)c3)c(S(=O)(=O)c3ccccc3)c2c1,-9,nt,nt,-1.7%,-0.2,0.4%,nt
O=C(CCNS(=O)(=O)c1ccccc1C(F)(F)F)NNC(=O)C1COc2ccccc2O1 (configuration not stated),-15,nt,3,-2.0%,0.3,-0.2%,nt
CCOC(=O)CSc1nc2c(c(=O)n1-c1ccc(OC)cc1)SCC2,7,-0.9,-26,-0.1%,0.3,1.8%,15%
CC(C)OC(=O)/C(=C\c1cccc2ccccc12)NC(=O)c1ccccc1,57,0.8,-10,nt,1.5,2.1%,-12%
Cc1ccc2nc(SCC(=O)NCc3ccccc3)nc(=O)n2c1,-5,nt,-19,nt,0.9,0.5%,nt
CC1(C)CC(=O)c2ccc(O)cc2O1,14,-0.3,-6,nt,-0.2,-0.4%,-3%
Cc1noc(C)c1-c1nccc(N2CCN(C)CC2)n1,nt,7.5,nt,nt,nt,0.0%,4%
Cc1ccc(S(=O)(=O)N2CCCCC2)cc1NC(=O)Cn1ccsc1=N,26,2.1,-14,nt,0.3,-1.9%,-44%
Cc1ccccc1NS(=O)(=O)CCCCC(Cl)(Cl)Cl,-5,-2.8,0,nt,1.0,8.4%,7%
CSc1cccc(Nc2cc(C(=O)NCCCN(C)c3ccccc3)c3ccccc3n2)c1,-2,nt,nt,?,2.3,11%,nt
O=C(COc1ccc(Br)cc1)Nc1ccc(S(=O)(=O)Nc2ccccn2)cc1,5,nt,-1,?,0.5,-0.3%,18%
COc1ccc(NS(=O)(=O)c2ccc(NC(=S)NC(=O)c3ccc(F)cc3)cc2)nn1,-10,-5.7,8,0.0%,0.6,0.8%,?
COc1ccccc1C(=O)NNC(=O)c1cccc(C)c1,7,-7.0,-19,-1.0%,-0.2,-0.5%,1%
C=CCNC(=S)NNC(=O)c1cccn(Cc2ccc(Cl)cc2)c1=O,-3,3.8,-2,214%,0.0,nt,9%
Cc1ccc2cc3c(nc2c1)N(c1ccccc1)CC3,1,6.1,?,-1.7%,-0.8,1.9%,-1%
Cc1cc(C(=O)Nc2cccc3ccccc23)c(C)o1,-13,1.4,12,nt,-0.4,1.6%,5%
CSc1ccccc1C(=O)OCC(=O)N1CCN(C(C)=O)CC1,5,nt,-5,-0.8%,-0.2,0.5%,nt
Cc1ccc(S(=O)(=O)N2CCCCC2)cc1NS(=O)(=O)c1ccc(Cl)c(C(=O)O)c1,4,nt,15,1.4%,-0.4,1.4%,nt
Cc1cccc(-n2cc(CN3CCN(C(=O)c4ncn[nH]4)CC3)c(-c3cccc(F)c3)n2)c1,-7,3.3,-4,0.8%,-0.3,2.3%,14%
Cc1ccc(C2C(C(=O)c3sc(C)nc3C)=C(O)C(=O)N2CCN(C)C)o1 (configuration not stated),-16,-1.2,12,-2.3%,0.8,-2.1%[38.3 µM],?
CC(C)c1cc(CN2CCN(C3CCCC3)C(CCO)C2)[nH]n1 (configuration not stated),-3,1.6,10,nt,-0.4,0.6%,1%
C=C(C)Cn1cnc2c(oc3nc4c(cc32)CCCC4)c1=O,16,1.2,27,-8.4%,-0.3,0.2%,1%
O=[N+]([O-])c1ccc(CSc2ccccn2)cc1,-2,-0.7,2,0.3%,-0.8,0.8%,-1%
CN1CC(=O)N2Cc3[nH]c4ccccc4c3C[C@H]2C1=O,-6,-8.7,0,-0.1%,-1.3,-0.5%,16%
Cc1ccc(S(N)(=O)=O)c(C)c1N1CCCC1=O,13,3.2,10,0.0%,0.0,1.2%,3%
NS(=O)(=O)c1ccc(CCNC(=O)Cc2cccs2)cc1,nt,10.0,-16,0.4%,nt,-0.1%,22%
NS(=O)(=O)c1ccc(CNC(=O)c2ccccc2SCC(=O)N2CCCC2)cc1,-3,nt,11,-2.9%,0.0,-0.5%,nt
O=C(Cc1ccccc1)Nc1nonc1NC(=O)c1ccccc1,6,-1.6,27,1.6%,-0.9,-0.9%,10%
COc1ccccc1NC(=O)N1CCCC1C(=O)Nc1ccc2c(c1)OCCO2 (configuration not stated),-8,-3.1,0,1.7%,2.2,-1.6%,12%
COc1ccc(S(=O)(=O)N2CCC(Cc3ccccc3)CC2)cc1NC(C)=O,31,-3.0,-4,1.3%,0.5,9.4%,-7%
CC(=O)Nc1ccc(NC(=O)c2ccc(-c3c(C)noc3C)c3ccoc23)cc1,nt,nt,nt,-0.3%,-0.8,4.1%,nt
COc1ccc(CN2C(=O)N(c3ccc(F)cc3)C(=O)C2CC(=O)Nc2cc(OC)cc(OC)c2)cc1 (configuration not stated),-12,nt,nt,-1.1%,2.0,2.4%,nt
